Screens deposited in PubChem BioAssay by several laboratories.
CSC inhib: blocks cancer stem cells; cancer stem cell-like cells viability, luminescence; hit rate 1.1% among 300,000; inhibition, % at 7.5 µM;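 active = mean at 75% or more and at least half the replicates too; tested in HMLE shEcad cells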;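 also: 0% = median of negative and 100% = median of positive control wells; the first replicate is given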
HIV Env fusion: inhibitors of HIV Env-mediated cell fusion. inhibition, % at 12.3 µM. hit rate 1.1% among 360,000. HeLa-JRFL Env/CEM21 cell fusion, luciferase;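 active = mean replicate inhibition score of at least 50 and every replicate individually at or above 50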;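 also: 0% = plate neutral controls and 100% = maraviroc near 300 nM; one replicate is shown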
MT1-MMP act inh: MT1-MMP (human) activation inhibition; P50281; HT1080 RFP-PRO-GFP cells, GFP/RFP ratio fluorescence, overnight; percent of plate control window, DMSO zero; GFP/RFP ratio change, % at 20 µM; hit rate 0.061% among 360,000;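 active = GFP/RFP ratio change of at least 30% with cell ATP level not reduced by more than half and red fluorescence within 50% of control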; also: strong numbers were not always called active
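Assay system: HT1080 cells carrying an RFP-PRO-GFP reporter | Dosing: Single dose of 20 µM compound, 1% DMSO final | Incubation: Cells overnight before dosing, compound overnight, 37 °C, 5% CO2 | Evaluation: GFP/RFP fluorescence ratio | Control set: DMSO and RFP-L50D-GFP cell wells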
Rce1 inh: inhibitors of yeast Ras-converting enzyme; yeast membranes, quenched prenylated peptide cleavage fluorescence; Q03530; hit rate 0.27% among 290,000; AID 2563; calls only;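 active = fall in fluorescence gain of 50% or more versus controls, with final raw signal at or below 3038400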;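 also: plate controls were neutral control wells for no effect and wells lacking membranes for full effect; tested at 10 µM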
PABP FP inh: blocks human PABP binding to poly(A) RNA | fluorescence polarization | inhibition, % at 35 µM | P11940 | hit rate 1% among 290,000;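 active = 50% or more with normal probe brightness, or confirmed in later tests; about a fifth of its hits are not listed in these tables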;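 also: calls also rest on retests at 20 µM and on dose response follow-up; controls were probe without protein and protein plus probe with vehicle; some compounds called inactive have numbers as strong as hits; many hits fall short of the cut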
Target sequence (P11940 whole entry, looked up): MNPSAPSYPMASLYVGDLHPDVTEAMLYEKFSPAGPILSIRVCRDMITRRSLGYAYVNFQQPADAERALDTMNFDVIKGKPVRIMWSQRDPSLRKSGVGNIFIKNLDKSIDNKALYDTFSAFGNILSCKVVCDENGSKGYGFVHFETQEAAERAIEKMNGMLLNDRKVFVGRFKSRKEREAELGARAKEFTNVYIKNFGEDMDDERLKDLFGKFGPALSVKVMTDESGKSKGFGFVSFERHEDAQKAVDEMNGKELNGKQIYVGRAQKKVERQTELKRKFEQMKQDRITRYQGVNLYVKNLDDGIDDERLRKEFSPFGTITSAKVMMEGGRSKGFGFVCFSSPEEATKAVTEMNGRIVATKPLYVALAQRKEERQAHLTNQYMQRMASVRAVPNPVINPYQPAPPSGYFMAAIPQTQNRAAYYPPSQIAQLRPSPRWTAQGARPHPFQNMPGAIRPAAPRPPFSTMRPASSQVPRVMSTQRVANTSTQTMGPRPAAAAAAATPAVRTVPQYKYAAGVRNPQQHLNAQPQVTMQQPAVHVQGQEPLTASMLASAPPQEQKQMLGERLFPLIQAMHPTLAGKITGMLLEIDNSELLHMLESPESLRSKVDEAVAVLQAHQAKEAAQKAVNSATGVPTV
Yeast UUG start: alters start codon recognition fidelity in yeast; S. cerevisiae UUG-firefly luciferase reporter, luminescence/redox ratio; activity score, % at 18.7 µM; hit rate 0.13% among 350,000; AID 602363;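 active = replicate mean at a twofold rise or more, about +100% in these data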;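 also: firefly luciferase made from a UUG start codon reports start codon fidelity; reporter light over untreated wells divided by growth signal over untreated wells; some hits fall short of that in this replicate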
eIF4H inh: inhibitors of RNA binding by human eIF4H; eIF4H fluorescence polarization binding assay; inhibition, % at 35 µM; AID 2012; hit rate 0.94% among 290,000;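 active = 50% or more with normal probe brightness, or confirmed in later tests; about a fifth of its hits are not listed in these tables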;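 also: calls also rest on retests at 20 µM and on dose response follow-up; 0% = protein and probe with vehicle and 100% = probe without protein; strong numbers were not always called active; many hits fall short of the cut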
eIF4H inh retest: also measured in eIF4H inh; calls as there; inhibition, %; compound at 20 µM; confirmation average;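 mean of two retest wells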
PABP FP inh retest: second read-out of PABP FP inh, no call of its own (marks repeat the call); inhibition, %; compound at 20 µM; confirmation repeats;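 mean of two retest wells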
MT1-MMP act inh RFP: second read-out of MT1-MMP act inh, no call of its own (marks repeat the call); RFP signal change, %; measured here: RFP expression control read;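 0 = vehicle wells; hits needed this value within 50% of zero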
An asterisk follows results filed as active; i = inactive; . = no result given. Some of the compounds tested (hit frequency here may not be typical).

Start of the listing, in advance (5 entries):
SMILES | CSC inhib | HIV Env fusion | MT1-MMP act inh | MT1-MMP act inh RFP | Rce1 inh | PABP FP inh | Yeast UUG start | eIF4H inh | others
COC(=O)/C(=C\c1ccc([N+](=O)[O-])o1)NC(=O)c1ccccc1 | -12 | -2 | -9 | 3 | i | 120* | -19 | 128 | eIF4H inh retest=9;PABP FP inh retest=54*
CCOC(=O)c1c(NC(=O)Cn2nc([N+](=O)[O-])c(Br)c2C)sc2c1CCC(C)C2 (stereo not drawn) | 18 | 8 | -2 | 2 | i | 14 | -21 | -2
CC(=O)Nc1ccc(NC(=O)C(C)OC(=O)CNS(=O)(=O)/C=C/c2ccc(C)cc2)cc1 (stereo not drawn) | -6 | -2 | 2 | 0 | i | . | -10 | .
CCCn1nnc(NC(=O)COc2ccc(Cl)cc2)n1 | -2 | . | 1 | 10 | i | -2 | -9 | -2
CC1(C(=O)Nc2nccs2)CCN1C(=O)C1(c2ccccc2)CC1 (stereo not drawn) | . | 7 | -2 | 4 | . | . | 1 | .

The list itself, from the first entry:
SMILES | CSC inhib | HIV Env fusion | MT1-MMP act inh | MT1-MMP act inh RFP | Rce1 inh | PABP FP inh | Yeast UUG start | eIF4H inh | others
COC(=O)/C(=C\c1ccc([N+](=O)[O-])o1)NC(=O)c1ccccc1 | -12 | -2 | -9 | 3 | i | 120* | -19 | 128 | eIF4H inh retest=9;PABP FP inh retest=54*
CCOC(=O)c1c(NC(=O)Cn2nc([N+](=O)[O-])c(Br)c2C)sc2c1CCC(C)C2 (stereo not drawn) | 18 | 8 | -2 | 2 | i | 14 | -21 | -2
CC(=O)Nc1ccc(NC(=O)C(C)OC(=O)CNS(=O)(=O)/C=C/c2ccc(C)cc2)cc1 (stereo not drawn) | -6 | -2 | 2 | 0 | i | . | -10 | .
CCCn1nnc(NC(=O)COc2ccc(Cl)cc2)n1 | -2 | . | 1 | 10 | i | -2 | -9 | -2
CC1(C(=O)Nc2nccs2)CCN1C(=O)C1(c2ccccc2)CC1 (stereo not drawn) | . | 7 | -2 | 4 | . | . | 1 | .
COCCn1c(=O)[nH]c2cc(C(=O)N3CCN(c4cccc(C(F)(F)F)c4)CC3)ccc2c1=O | 2 | 5 | 1 | -8 | i | 8 | -24 | -2
COc1cc(CNC2CCCCCCC2)cc(Cl)c1OC | 3 | 25 | -1 | 0 | i | -5 | -4 | 2
OCCN1CCN(c2nc(N3CCCCC3)nc(N3CCCCC3)n2)CC1 | -5 | -3 | -5 | -6 | i | -3 | -3 | 0
O=C(COc1ccccc1)N[C@@H]1c2ccccc2CC[C@@H]1OCc1ccccc1 | . | 17 | -17 | -15 | . | . | -15 | .
C=C(C)COc1cc2oc(=O)c(CC(=O)N3C[C@H]4C[C@@H](C3)c3cccc(=O)n3C4)c(C)c2cc1Cl | -4 | . | 1 | 1 | i | 10 | 0 | -2
CCOC(=O)N1CCC(N(CCN(C)C)C(=S)Nc2ccc(OCC)cc2)CC1 | -11 | -10 | . | . | i | -3 | . | -9
CCOc1ccc(/C=C/C(=O)Nc2ccc3[nH]c(=O)[nH]c3c2)cc1 | -10 | -2 | 3 | 4 | i | -10 | -15 | 20
O=C(CCN1C(=O)c2cccc3cccc(c23)C1=O)NCc1cccnc1 | -10 | -10 | 4 | 7 | i | 1 | . | -4
CCCN1C(=O)c2ccccc2NC1c1ccc(C)cc1 (stereo not drawn) | -12 | -7 | -4 | -7 | i | 1 | . | -1
Cn1c(SCC(=O)NCC2CCCO2)nnc1-c1cccc(NC(=O)c2ccccc2F)c1 (stereo not drawn) | -4 | 13 | 1 | 4 | i | 1 | . | 2
O=[N+]([O-])c1ccc(CS(=O)(=O)c2ccc(Cl)cc2)cc1 | 9 | -5 | 5 | 2 | i | 5 | -14 | 6
Cc1ccc(-n2c(CNc3ccc(F)cc3)nnc2SCC(=O)NCc2ccco2)cc1 | 5 | -23 | 6 | 3 | i | -7 | 0 | 2
CCC(=O)c1cn(CC(=O)Nc2ccc(C)cc2C)c2ccccc12 | -8 | 1 | 4 | -8 | i | -6 | 16 | -10
CSc1nc2sc3c(c2c(=O)n1C)CCC3 | -4 | 6 | -3 | 0 | i | -4 | 7 | -7
O=C(N/N=C1\SCC(=O)N1CCc1ccccc1)c1cccs1 | 1 | -2 | 0 | 1 | i | 5 | -4 | 0
Nc1cc(=O)[nH]c(SCC(=O)Nc2cc(Cl)cc(Cl)c2)n1 | 4 | -115 | 1 | 0 | i | 2 | -12 | 5
Cc1nnc(NC(=O)NCN2C(=O)C3C4C=CC(C4)C3C2=O)s1 (stereo not drawn) | -2 | . | -3 | 1 | i | 2 | . | -3
CCCCn1c(N)c(N(Cc2ccccc2OC)C(=O)C2=COCCO2)c(=O)[nH]c1=O | -14 | 1 | -2 | 2 | i | . | . | .
O=C(COC(=O)c1ccc(Cl)nc1)NC1CCCc2ccccc21 (stereo not drawn) | -10 | -11 | 0 | 6 | . | . | -9 | .
Clc1ccc(-c2nnc3c4ccccc4nc(N4CCOCC4)n23)cc1Cl | 13 | -166 | -1 | -4 | i | -16 | -18 | -3
CCOC(=O)c1cn2nc(N3CCCCC3)ccc2n1 | -2 | 13 | 6 | 1 | i | 3 | . | -8
COCCNC(=O)/C(C#N)=C/c1c(N2CC(C)OC(C)C2)nc2ccccn2c1=O (stereo not drawn) | -5 | -5 | 3 | 7 | i | -6 | -8 | 2
O=c1[nH]nc(CNc2ccc(OC(F)(F)F)cc2)c2ccccc12 | 7 | 17 | 2 | -13 | i | -4 | -36 | -5
CN(C(=O)CSc1nc2ccccc2n1CCc1ccccc1)C1CCS(=O)(=O)C1 (stereo not drawn) | 11 | -51 | 1 | 1 | i | 2 | -26 | 5
CCOC(=O)N1CCC(N2C(=O)c3ccccc3C2Nc2ccccc2C)CC1 (stereo not drawn) | -11 | -6 | 1 | -2 | i | -8 | 24 | -15
COc1ccc(N(CC(=O)NCc2cccnc2)S(=O)(=O)c2c(C)nn(C)c2C)cc1 | -14 | 3 | -2 | 5 | . | -3 | 22 | 8
Cc1ccc(NC(=O)CN2C(=O)CCSc3ccc(S(=O)(=O)N4CCCC4)cc32)cc1C | 6 | -14 | -1 | -2 | i | -3 | -18 | 14
CN1CCN(C(=O)CCN2C(=O)S/C(=C/c3ccc(Cl)cc3)C2=O)CC1 | 51 | 24 | -3 | -4 | i | 9 | . | -9
Cc1nn(C)cc1/C=N/NC(=O)Cn1nnc(N)n1 | -12 | 9 | -1 | 6 | i | 0 | -9 | 9
Cc1ccccc1OCCCCn1c(CO)nc2ccccc21 | -15 | 16 | -3 | -20 | i | -13 | -19 | -4
CCOC(=O)[C@H]1[C@H]2COc3ccccc3[C@@H]2N2C(=O)c3cc(OC)c(OC)cc3NC(=O)[C@@]12C | -16 | -20 | 4 | 4 | . | . | 1 | .
Cc1ccccc1N(CC(=O)NCc1ccc2c(c1)OCO2)C(=O)CCC(=O)Nc1ccccn1 | . | . | -2 | -3 | i | -2 | -6 | 11
COc1ccc(NC(=O)c2cc(CC(C)C)nc3ccccc23)cc1 | -2 | 78* | -5 | -12 | i | -8 | -20 | -15
COc1ccccc1NC(=O)c1cc(C(=O)Nc2ccccc2OC)cc(N2C(=O)CCC2=O)c1 | -10 | 30 | 4 | 5 | i | -9 | . | -4
O=C1NC(=O)c2cc(NC(=O)C3CCCCC3)ccc21 | 3 | . | -2 | -2 | i | -5 | -6 | -5
Cc1cc(C)c(NC(=O)COC(=O)c2ccncc2)c(C)c1 | 4 | 24 | 8 | -2 | . | . | -1 | .
Cn1c(=O)n(Cc2ccccc2F)c(=O)c2c1nc1n2CCCN1CCc1ccccc1 | -11 | . | 20 | 5 | i | -7 | -18 | -12
COc1ccccc1-c1nnc(SCC(=O)Nc2cc(C)on2)o1 | -7 | . | 2 | 3 | i | -4 | -8 | -3
Cc1nnc2ccc(-c3cccc(NS(=O)(=O)c4cc(F)ccc4F)c3)nn12 | 14 | -9 | 12 | 8 | i | . | -18 | .
COc1ccc(Oc2ncnc3c2oc2ccc(Br)cc23)cc1 | -1 | -4 | 2 | 3 | i | -3 | -21 | -4
Cc1cccc(NC(=O)c2n[nH]c([N+](=O)[O-])c2Br)c1C | 35 | -131 | -4 | -13 | i | 6 | -26 | 0
O=C(N/N=C/c1cc(Cl)cc([N+](=O)[O-])c1O)C(O)(c1ccccc1)c1ccccc1 | 12 | -5 | -2 | -3 | i | 30 | -7 | 1
O=S(=O)(c1ccc(F)cc1)N1CCC(N2CCCC2)CC1 | -1 | . | 4 | 4 | . | 8 | -11 | -8
COC(=O)C1(C)CCC(C(=O)Nc2ccccc2)C1(C)C (stereo not drawn) | -14 | -5 | -1 | -1 | i | . | . | .
Cc1c(-c2ccccc2)[nH]n2c(=O)c3c(nc12)CCCC3 | 58 | -88 | 1 | 2 | i | -8 | -7 | 6
Next part:
SMILES | CSC inhib | HIV Env fusion | MT1-MMP act inh | MT1-MMP act inh RFP | Rce1 inh | PABP FP inh | Yeast UUG start | eIF4H inh | others
COc1ccc(CNC(=O)CNS(=O)(=O)c2ccc(Cl)cc2)cc1 | -7 | 10 | 1 | 3 | i | 28 | . | 3
COc1ccc(CNC(=O)CCS(=O)(=O)c2ccc3c(c2)CC(C)N3C(=O)C2CC2)cc1 (stereo not drawn) | 23 | 15 | -1 | 0 | i | 3 | . | -8
CC(=O)Oc1ccc(C(c2ccc(OC(C)=O)cc2)c2ccccn2)cc1 | . | . | 4 | -18 | i | 10 | -8 | 1
OC[C@H]1O[C@@H]2O[C@H]3[C@H](O)[C@@H](O)[C@@H](O[C@H]4[C@H](O)[C@@H](O)[C@@H](O[C@H]5[C@H](O)[C@@H](O)[C@@H](O[C@H]6[C@H](O)[C@@H](O)[C@@H](O[C@H]7[C@H](O)[C@@H](O)[C@@H](O[C@H]1[C@H](O)[C@H]2O)O[C@@H]7CO)O[C@@H]6CO)O[C@@H]5CO)O[C@@H]4CO)O[C@@H]3CO | -12 | . | . | . | i | -5 | . | -8
COc1cc(F)ccc1-c1csc(C(C)(O)c2ccc(F)c(F)c2)n1 (stereo not drawn) | . | 5 | 0 | -1 | . | . | -16 | .
CCOC(=O)C1C(=O)C=C(c2cccc(NS(C)(=O)=O)c2)CC1c1ccco1 (stereo not drawn) | 2 | -167 | 3 | 2 | i | -2 | 4 | 8
C[C@@H]1CCC[C@@]2(O[C@@H](CCO)C[C@@H](O)[C@@H]2O)O1 | -11 | 2 | -2 | 1 | i | . | -13 | .
Cc1[nH]c2ccccc2c1C(=O)CSc1nc2ncc(Cl)cc2[nH]1 | 2 | 7 | -3 | -2 | i | 2 | -4 | -11
C=CCn1c(COc2ccc(CC)cc2)nnc1SCC(=O)N(C)C1CCS(=O)(=O)C1 (stereo not drawn) | 1 | -24 | 1 | 1 | i | -4 | -23 | -4
CN(C)CCN1C(=O)C2C3C=CC(C3)C2C1=O (stereo not drawn) | -11 | -9 | 2 | 4 | i | -4 | . | 2
Cc1ccc(NC(=O)c2cccs2)cc1NC(=O)c1cccc(F)c1 | 1 | 10 | -1 | -1 | . | 4 | -20 | 2
CN1CCN(S(=O)(=O)c2ccc(Sc3nc4ccccc4[nH]3)c3nsnc23)CC1 | -17 | . | -4 | -4 | i | -3 | -22 | 1
Cc1ccc(NC(=O)CS(=O)CC(=O)Nc2ccc3c(c2)OCO3)cc1Cl (stereo not drawn) | 12 | 9 | 1 | -3 | i | -8 | -23 | 8
CCc1ccccc1N/C(=N\S(=O)(=O)c1ccccc1)C(F)(F)F | 2 | -1 | 4 | 3 | i | -11 | . | 0
Cc1ccc(C(=O)Cn2c(C(=O)OCCO)cc3ccccc32)cc1 | 43 | 4 | -4 | -7 | i | 7 | 9 | 0
Cn1cccc1Cc1nnc(SCC(N)=O)n1-c1ccc(F)cc1 | . | -148 | -1 | 3 | i | -1 | -20 | 3
